High-throughput results from PubChem.
FGF22 binding – shifts melting point of recombinant human FGF22. calls only at 9.99 µM. recombinant FGF22 thermal shift, SYPRO orange fluorescence; percent of sucrose octasulfate shift, DMSO zero. hit rate 1.5% among 340,000. Q9HCT0;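 active means melting point raised past a set limit in the mean and every replicate; three in four hits are not shown here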
Target sequence (Q9HCT0 whole entry, looked up): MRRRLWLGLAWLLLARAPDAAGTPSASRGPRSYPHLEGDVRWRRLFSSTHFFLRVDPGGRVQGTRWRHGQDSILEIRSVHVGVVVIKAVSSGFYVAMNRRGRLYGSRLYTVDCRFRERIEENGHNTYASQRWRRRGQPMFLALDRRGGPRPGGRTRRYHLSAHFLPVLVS
Ecoli rRNA inh – inhibitors of bacterial rRNA selective over humanized ribosomes; E. coli WT GFP vs humanized-ribosome RFP mutants, fluorescence, 24 h; stronger effect = lower value; DMSO median 0, no signal -100; GFP signal change (wild-type ribosome), % (test concentration not listed); hit rate 1.6% among 350,000; AID 720706;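 active means significant combined selectivity score with lowered wild-type GFP, culture density cut under 30%, mutant RFP and density less affected; inactive means any of these conditions unmet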; further: one replicate is shown; some compounds called inactive have numbers as strong as hits
Ecoli rRNA inh OD600 – recorded beside Ecoli rRNA inh, whose call it bears; OD600 change, %; measured here: OD600 growth;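 optical density of the mix in the first replicate; 0 = DMSO median and -100 = no signal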
Ecoli rRNA inh RFP – recorded beside Ecoli rRNA inh, whose call it bears; RFP signal change, %; measured here: RFP humanized mutant strains;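 first replicate; 0 = DMSO median and -100 = no signal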
Active calls of the source: *; i = inactive.

SMILES	FGF22 binding	Ecoli rRNA inh	Ecoli rRNA inh OD600	Ecoli rRNA inh RFP
C[C@@H]1CN([C@H](C)CO)C(=O)c2cc(NC(=O)C3CCCCC3)ccc2O[C@@H]1CN(C)S(=O)(=O)c1ccc(Cl)cc1	i	-6.7	-12.1	-0.7
O=C(C[C@@H]1CC[C@H]2[C@@H](COC[C@H](O)CN2S(=O)(=O)c2ccc(F)cc2)O1)N[C@@H]1CCN(Cc2ccccc2)C1	i	-4.4	2.4	-4.0
C[C@H]1CN([C@@H](C)CO)C(=O)Cc2cc(NC(=O)CCN3CCOCC3)ccc2O[C@H]1CN(C)CC1CC1	i	4.6	10.1	0.1
Cc1noc(C)c1NC(=O)N(C)C[C@H]1Oc2ccc(NS(=O)(=O)c3ccccc3)cc2CC(=O)N([C@H](C)CO)C[C@@H]1C	i	2.6	9.1	-0.9
CC(C)(O)C#Cc1ccc([C@@H]2[C@@H](CO)N3CCCCN(S(C)(=O)=O)C[C@H]23)cc1	i	7.0	16.6	-4.3
CCOc1cc(N2CCC(O)CC2)ccc1Nc1ncc2c(n1)N(C)c1ccccc1C(=O)N2C	i	-4.4	-0.5	15.1
O=C(C[C@@H]1C[C@H]2c3cc(NC(=O)c4cccnc4)ccc3O[C@H]2[C@H](CO)O1)NCCc1ccccc1	i	-0.1	14.7	-2.7
COCC(=O)N1C[C@H](C)[C@H](OC)CN(C)C(=O)c2cc(NC(=O)c3ccc(F)cc3)ccc2OC[C@@H]1C	i	-0.5	3.8	0.8
C[C@@H]1CCCCO[C@@H](CN(C)S(=O)(=O)c2ccc(Cl)cc2)[C@@H](C)CN([C@@H](C)CO)C(=O)c2cc(NS(=O)(=O)c3ccc(F)cc3)ccc2O1	i	-0.2	4.8	-0.7
CCCNC(=O)N1C[C@H](O)COC[C@@H]2O[C@@H](CC(=O)N3CCN(C)CC3)CC[C@H]21	i	8.1	19.8	-2.1
C[C@H](CO)N1C[C@H](C)[C@H](CN(C)C(=O)Nc2ccc3c(c2)OCO3)Oc2ccc(NC(=O)CCN3CCOCC3)cc2C1=O	i	-0.3	1.4	-1.8
CO[C@H]1CN(C)C(=O)c2ccc(NC(=O)C3CCCCC3)cc2OC[C@@H](C)N(C)C[C@H]1C	i	1.3	-0.6	-2.9
COc1ccccc1CNC(=O)C[C@@H]1CC[C@@H]2[C@H](COC[C@@H](O)CN2Cc2ccccc2)O1	i	-4.4	-7.9	-8.2
C[C@H](CO)N1C[C@H](C)[C@@H](CN(C)Cc2ccccc2)Oc2cc(-c3ccncc3)ccc2S1(=O)=O	i	-32.9	-58.8	15.6
Cc1ccccc1-c1ccccc1[C@@H]1[C@H](C#N)N(C(=O)c2ccc(F)cc2)[C@H]1CO	i	-6.3	-36.0	-3.8
CCCCCCCCN1C(=O)[C@@H](CC(=O)N2CCCCC2)C[C@@]2(C(=O)OC)C1=C[C@H](C(C)(C)C)O[C@@H]2C	i	8.9	7.9	-0.2
COc1ccccc1NC(=O)N(C)C[C@H]1OCc2ccccc2-c2ccccc2C(=O)N([C@@H](C)CO)C[C@@H]1C	i	-0.4	5.3	-5.6
C[C@H](O)C#Cc1ccc2c(c1)O[C@H](CN(C)C(=O)CC1CC1)[C@@H](C)CN([C@@H](C)CO)S2(=O)=O	i	-1.1	3.5	-2.8
O=C(N[C@H]1CC[C@@H](CCn2cc(-c3ccc(F)cc3)nn2)O[C@@H]1CO)c1cnccn1	i	3.2	3.6	3.0
COc1cccc(CNC(=O)[C@H]2CCCN2C(=O)[C@H]2CCCN2C(=O)OC(C)(C)C)c1	i	13.7	14.1	4.4
C[C@@H]1CN([C@@H](C)CO)C(=O)c2cc(NC(=O)C3CC3)ccc2O[C@@H]1CN(C)S(=O)(=O)c1ccccc1	i	-0.9	8.3	-0.7
O=C(C[C@H]1C[C@H]2c3cc(NC(=O)c4ccc5c(c4)OCO5)ccc3O[C@H]2[C@@H](CO)O1)NCc1cc(F)ccc1F	i	-3.7	-5.2	-1.3
CCC(=O)N1CCC2(CC1)CN(C(=O)c1cnccn1)[C@@H](CO)c1c2c2ccc(OC)cc2n1C	i	1.9	10.4	-2.0
C=CCN1CC(COCc2ccccc2)OCCS1(=O)=O (stereo not drawn)	i	0.3	-4.4	2.2
CC(C)NC(=O)N(C)C[C@H]1OCCCC[C@H](C)Oc2ccc(N(C)C)cc2C(=O)N([C@H](C)CO)C[C@@H]1C	i	4.2	17.5	3.0
C[C@H]1CN([C@@H](C)CO)C(=O)c2cc(C3=CCCC3)cnc2O[C@@H]1CN(C)C(=O)Nc1ccc(C(F)(F)F)cc1	i	-3.6	-18.3	1.1
CCNC(=O)C[C@H]1CC[C@H](NC(=O)NC2CCCCC2)[C@@H](CO)O1	i	-6.1	-6.8	0.6
C[C@@H]1CCn2cc(nn2)COC[C@@H](Cc2ccccc2)NC1=O	i	3.6	3.7	-2.5
C[C@@H]1CN([C@@H](C)CO)C(=O)c2cc(NC(=O)Cc3ccccc3)ccc2O[C@@H](C)CCCCO[C@@H]1CN(C)C	i	2.9	8.9	0.6
COCC(=O)N1C[C@H](C)[C@@H](OC)CN(C)C(=O)c2cc(NC(=O)c3ccc(OC)cc3)ccc2OC[C@H]1C	i	-0.5	3.0	-0.2
C[C@@H]1CN([C@@H](C)CO)C(=O)c2cc(NC(=O)C3CCCCC3)ccc2O[C@H]1CN(C)Cc1ccc2c(c1)OCO2	i	1.0	1.1	-1.2
COc1ccc2c3c([nH]c2c1)[C@H](CO)N(C(=O)NC1CCCC1)CC31CCN(C(=O)Nc2cccc(F)c2)CC1	i	-2.7	-4.9	3.3
COc1ccc(S(=O)(=O)Nc2ccc3c(c2)C(=O)N([C@H](C)CO)C[C@H](C)[C@@H](CN(C)S(=O)(=O)c2cccs2)OCCCC[C@@H](C)O3)cc1	i	3.8	-2.5	-0.3
COc1ccc(S(=O)(=O)N(C)C[C@H]2Oc3ccc(NC(=O)NC4CCCCC4)cc3C(=O)N([C@@H](C)CO)C[C@H]2C)cc1	i	0.6	-10.0	-2.1
CC=Cc1ccc2n(c1=O)C[C@@H]1[C@@H](CO)[C@H](C(=O)NCc3ccccc3F)N(S(C)(=O)=O)[C@H]21 (mixture of isomers)	i	2.7	-1.0	-0.1
C[C@@H]1CN([C@@H](C)CO)C(=O)c2cc(NS(=O)(=O)c3ccccc3)ccc2O[C@@H]1CN(C)C(=O)Nc1ccc(F)cc1	i	3.0	5.4	-0.6
Cc1cc(C(=O)Nc2cccc3c2O[C@@H](CN(C)CC2CC2)[C@@H](C)CN([C@@H](C)CO)C3=O)n(C)n1	i	5.5	2.2	-1.1
COc1ccc(S(=O)(=O)N(C)C[C@H]2OCCCC[C@H](C)Oc3ccc(NS(=O)(=O)c4c(C)noc4C)cc3C(=O)N([C@@H](C)CO)C[C@H]2C)cc1	i	-0.3	-2.7	-1.8
CCc1cnc(N2[C@H](C#N)[C@@H](c3ccc(C#CC(C)C)cc3)[C@H]2CO)s1	i	-2.5	-44.0	2.3
COc1ccc2c3c(n(C)c2c1)[C@@H](CO)N(C(=O)c1ccc(F)cc1)CC31CN(C)C1	i	1.2	-0.5	-3.2
CCCCCCCCN1C(=O)[C@@H](CC(=O)N2CCC(c3ccccc3)CC2)C[C@@]2(C(=O)OC)C1=C[C@H](C(C)(C)C)O[C@@H]2C	i	6.3	13.3	2.8
C[C@@H]1CN([C@H](C)CO)C(=O)c2cccc(NS(=O)(=O)c3ccc(F)cc3)c2O[C@H]1CN(C)Cc1ccncc1	i	1.5	9.1	0.2
COCc1cn(CC[C@@H]2CC[C@@H](NC(=O)Nc3ccc(OC)cc3)[C@@H](CO)O2)nn1	i	3.6	2.4	-2.1
CCCNC(=O)N1C[C@H](C)[C@@H](OC)CN(C)C(=O)c2cc(NS(=O)(=O)CC(F)(F)F)ccc2OC[C@H]1C	i	1.1	2.7	-0.4
Cc1ccccc1S(=O)(=O)N1C[C@@H](O)COC[C@H]2O[C@@H](CC(=O)N3CCCCC3)CC[C@@H]21	i	1.2	1.6	2.5
CC=Cc1ccc2n(c1=O)C[C@@H]1[C@@H](CO)[C@H](C(=O)N(C)C)[C@H]2N1CC1CC1 (mixture of isomers)	i	3.1	5.7	0.0
CO[C@@H]1CN(C)C(=O)c2ccc(NC(=O)c3ccc(F)cc3)cc2OC[C@@H](C)N(C(=O)CC2CC2)C[C@H]1C	i	2.3	5.2	-0.2
COc1ccc(NC(=O)Nc2ccc3c(c2)C(=O)N([C@@H](C)CO)C[C@@H](C)[C@@H](CN(C)Cc2ccc(-c4ccccc4)cc2)O3)cc1	i	-4.4	-9.0	5.0
O=C(Nc1ccccc1)N[C@H]1CC[C@H](CCn2cc(C3(O)CCCC3)nn2)O[C@@H]1CO	i	-1.0	6.5	-2.0
C[C@@H]1CN([C@@H](C)CO)C(=O)c2cccc(NC(=O)Nc3ccc(F)cc3)c2O[C@@H]1CN(C)C(=O)Nc1ccc(F)cc1	i	-4.4	-3.6	0.9
O=C(C[C@H]1C[C@@H]2c3cc(NC(=O)CC4CC4)ccc3O[C@@H]2[C@H](CO)O1)NCc1ccncc1	i	0.8	5.4	-0.5
C[C@@H]1CN([C@@H](C)CO)S(=O)(=O)c2ccc(-c3ccc(C#N)cc3)cc2O[C@H]1CN(C)Cc1cccc(F)c1	i	-2.0	7.6	1.0
C[C@@H]1CN([C@@H](C)CO)C(=O)Cc2cc(NC(=O)CCC(F)(F)F)ccc2O[C@H]1CN(C)CC1CCCCC1	i	-0.6	-6.4	-0.2
C[C@H]1CN([C@@H](C)CO)C(=O)Cc2cc(NC(=O)Nc3ccccc3)ccc2O[C@H]1CN(C)Cc1ccc(C(F)(F)F)cc1	i	2.1	-32.8	-4.9
Cc1ccccc1S(=O)(=O)N1CC[C@@H]2[C@H](CO)N(C)c3ccc(Br)cc3[C@@H]21	i	-52.0	-71.7	-5.5
CO[C@H]1CC[C@@H]2CCOc3c(C#N)cccc3C(=O)N(C)[C@H](C)C(=O)N(C)C[C@H]1O2	i	3.2	1.1	-2.5
CNC[C@H]1Oc2ccc(N(C)C)cc2C(=O)N([C@@H](C)CO)C[C@@H]1C	i	6.4	12.6	-4.3
C[C@H](CO)N1C[C@H](C)[C@H](CN(C)Cc2ccccc2)OCc2ccccc2-c2c(n(C)c3ccccc23)C1=O	i	-9.1	-27.3	15.8
C[C@@H]1CN([C@@H](C)CO)C(=O)c2cccc(NS(=O)(=O)c3ccc(F)cc3)c2O[C@@H]1CN(C)S(=O)(=O)c1cn(C)cn1	i	2.4	4.5	-0.4
CO[C@@H]1CN(C)C(=O)c2ccc(NC(=O)C3CCOCC3)cc2OC[C@H](C)N(Cc2cccnc2)C[C@@H]1C	i	2.5	0.0	-1.0

(next part)
SMILES	FGF22 binding	Ecoli rRNA inh	Ecoli rRNA inh OD600	Ecoli rRNA inh RFP
NCC[C@H]1CC[C@H](NC(=O)Nc2ccc(F)cc2)[C@@H](CO)O1	i	0.5	6.4	0.9
C[C@@H]1CN([C@H](C)CO)C(=O)Cc2cc(NC(=O)Nc3ccc(C(F)(F)F)cc3)ccc2O[C@H]1CN(C)C(=O)Nc1ccccc1	i	-3.7	-14.4	6.9
C[C@@H]1CN([C@H](C)CO)C(=O)Cc2cc(NC(=O)Nc3ccc(C(F)(F)F)cc3)ccc2O[C@H]1CN(C)Cc1ccc(C(=O)O)cc1	i	3.8	-5.9	5.4
O=C(CN1CCOCC1)N[C@H]1CC[C@@H](CCNC(=O)Nc2cc(F)ccc2F)O[C@@H]1CO	i	2.2	6.7	1.1
C[C@H](CO)N1C[C@H](C)[C@@H](CN(C)Cc2ccc(C(=O)O)cc2)OCCCC[C@H](C)Oc2ccc(NS(=O)(=O)c3ccccc3)cc2C1=O	i	-1.8	0.4	-2.3
C[C@H](CO)N1C[C@H](C)[C@H](CN(C)C)Oc2ncc(C#CC3CC3)cc2C1=O	i	-1.7	1.9	-2.4
CC(C)NC(=O)N(C)C[C@H]1Oc2ccc(NC(=O)CCCN(C)C)cc2C(=O)N([C@@H](C)CO)C[C@H]1C	i	5.1	2.5	2.3
CCCNC(=O)[C@H]1[C@H](CO)[C@H]2Cn3c(ccc(-c4ccncc4)c3=O)[C@@H]1N2Cc1ccccc1F	i	-3.6	-3.0	-5.0
COc1ccccc1-c1ccc([C@H]2[C@H]3CN(C(=O)NC4CCCC4)CCCCN3[C@H]2CO)cc1	i	0.7	-12.3	2.5
Cc1ccc(S(=O)(=O)N2C[C@H](O)COC[C@@H]3O[C@@H](CC(=O)NCc4ccc(Cl)c(Cl)c4)CC[C@H]32)cc1	i	-13.9	-39.9	2.0

These rows are one share of the data; the hit share may differ from the screen's.
